Mtb growth = Mycobacterium tuberculosis H37Rv growth inhibition, cell based, confirmatory dose response (AID 1949); M. tuberculosis H37Rv growth inhibition; one-dose inhibition, % at 10 µg/mL; IC50 in µg/mL for titrated hits; most inactive calls were filed without a number and no value below 0 was filed; 100,000 tested, 1.6% active;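 active = confirmed in a dose series; inconclusive = about 50% or more but not retested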;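 note: bacteria grown 7 days with compound before Alamar blue readout; 0% = untreated bacteria and 100% = reference antibiotic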
* hit, by the source's call; i = inactive; ? = inconclusive. Some of the compounds tested, so the mix of outcomes need not match the whole.

SMILES | Mtb growth
CC(C)S(=O)(=O)c1ccc(Cl)cc1 | 1.0%
COc1ccccc1OCC(=O)Nc1sc2c(c1C(=O)NCC1CCCO1)CCC2 (stereo not given) | i
N#CCCn1cc(C(=O)OCc2ccccc2)c(-c2cccs2)n1 | i
Cc1cc(C)n(C(=O)CNc2ccccc2Cl)n1 | i
COC(=O)c1sc(NC(=O)c2cc(-c3ccccn3)nc3ccc(Br)cc23)nc1C | i
Cn1c(=O)c2[nH]c(-c3ccccn3)nc2n(C)c1=O | i
COc1ccc(CC(=O)NCc2ccc3c(c2)OCO3)cc1OC | 3.3%
O=c1cc2nc(-c3ccco3)cc(C(F)(F)F)n2[nH]1 | i
Cn1c(=O)c(C(=O)NCc2ccccn2)c(O)c2ccccc21 | i
O=C(COc1ccc(F)cc1)N1CCc2ccccc21 | i
CCn1c(COc2ccccc2)nnc1SCC(=O)Nc1cc(C)c(C)cc1Br | i
COc1ccc(Cc2nc(-c3ccc(NC(=O)c4ccc(Br)o4)cc3)no2)cc1 | i
Cc1ccc(NC(=S)NC(=O)C(=O)Nc2ccccc2)cc1 | i
Cc1ccc(C)c(NC(=O)CN(Cc2ccccc2)S(=O)(=O)c2cc(Cl)ccc2Cl)c1 | i
Cc1cccc(-n2c(Cc3cccc([N+](=O)[O-])c3)nc3ccccc3c2=O)c1 | i
CC(C)c1ccccc1NC(=O)CSc1nnc(COc2ccccc2)n1C | i
O=C(Nc1ccc([N+](=O)[O-])cc1)/C(=C\C=C\c1ccccc1)NC(=O)c1ccccc1Br | i
CC(=O)NCc1ccc2[nH]c3c(c2c1)CCCC3 | i
Nc1nonc1-c1nc2ccccc2n1Cc1ccc(Cl)cc1Cl | i
COc1ncnc2sc3c(c12)CCCC3 | i
O=C(CC1(O)C(=O)N(Cc2ccccc2)c2ccc(Cl)cc21)c1cccnc1 (stereo not given) | i
O=C(NC1CCCCCC1)c1ccccc1I | i
O=C(Nc1ccc(-c2nc3ncccc3o2)cc1)c1cccs1 | i
COc1ccc(/C=C2/SC(=S)N(Cc3ccco3)C2=O)c(OC)c1 | i
Cc1ccc2c(c1)C1OCCC1C(c1ccco1)N2 (stereo not given) | 3.8%

The last 5 records of the part before come first, to join the parts.
SMILES | Mtb growth
O=C(CC1(O)C(=O)N(Cc2ccccc2)c2ccc(Cl)cc21)c1cccnc1 (stereo not given) | i
O=C(NC1CCCCCC1)c1ccccc1I | i
O=C(Nc1ccc(-c2nc3ncccc3o2)cc1)c1cccs1 | i
COc1ccc(/C=C2/SC(=S)N(Cc3ccco3)C2=O)c(OC)c1 | i
Cc1ccc2c(c1)C1OCCC1C(c1ccco1)N2 (stereo not given) | 3.8%
CCCCC(=O)Nc1ccc(NC(=O)CSc2ccc(Cl)cc2)cc1OC | i
CCN(CC)S(=O)(=O)c1ccc(OC)c(NC(=O)C(Sc2ccccc2)c2ccccc2)c1 (stereo not given) | i
COC(=O)c1ccc(Nc2nc(C)cc(=O)[nH]2)cc1 | 1.0%
Cc1ccc(C(=O)C2=C(O)C(=O)N(Cc3ccccc3)C2c2cccnc2)o1 (stereo not given) | i
CC(Oc1ccc(Cl)cc1Cl)C(=O)Nc1ccc(Cl)cn1 (stereo not given) | i
CCOc1ccc(N(CC(=O)NCc2ccccn2)S(=O)(=O)c2ccc(OC)c(OC)c2)cc1 | i
CCOc1ccc(NC(=O)CC2S/C(=N\N=C(/C)c3ccccc3)NC2=O)cc1 (stereo not given) | 48.1%
COc1ccc(NC(=O)CC2Sc3ccc(C(F)(F)F)cc3NC2=O)c(OC)c1 (stereo not given) | i
CCCN(CCC)S(=O)(=O)c1ccc(NC(=O)c2ccc([N+](=O)[O-])cc2)cc1 | i
Cc1nnc(SCC(=O)Nc2nc(-c3ccc(Cl)cc3)ns2)s1 | 3.6%
CC(C(=O)NCc1ccc(F)cc1)(C(F)(F)F)C(F)(F)F | i
CC1=C(Cl)c2ccc(Br)cc2S1(=O)=O | i
COCCCNC(=S)Nc1ccn(Cc2c(F)cccc2Cl)n1 | i
CS(=O)(=O)Nc1nc2ccc([N+](=O)[O-])cc2s1 | i
CCC(CO)NS(=O)(=O)c1cc(-c2n[nH]c(=O)c3ccccc23)ccc1C (stereo not given) | i
Cc1c(Cl)c(C(F)(F)F)nn1CCCNC(=S)NCc1ccc(Cl)cc1 | 11.2µg/mL*
COc1cccc(C(=O)NC(C)(C)C)c1OC | i
CC(=O)Nc1ccc(NC(=O)C(C)Sc2ccc(Cl)cc2)cc1 (stereo not given) | i
CCCCC(=O)NCc1ccc(C)cc1 | i
CCCCc1cc(=O)oc2cc(OCC(=O)c3ccc(C)cc3)ccc12 | 1.2%
C=CCc1c(C)nc2sc(C(=O)Nc3cccc(Cl)c3)c(N)c2c1C | i
Clc1cccc(-c2nnc3sc(-c4cnccn4)nn23)c1 | 0.7%
C=CCc1ccccc1OCCOCCn1ccnc1 | i
CC(C)c1ccccc1OCC(=O)Nc1ccccc1Cl | 2.7%
COc1ccccc1OCCSc1nc2ccccc2s1 | 7.2%
The results go on.
SMILES | Mtb growth
O=C(Cc1ccccc1)Nc1ccccc1Sc1ccccc1 | i
O=C(NCCCN1CCCC1=O)Nc1ccc(Cl)cc1 | i
COc1cccc(S(=O)(=O)Nc2ccc(C(=O)N3CCN(C(=O)c4ccco4)CC3)cc2)c1 | i
C=CCSc1nc2c(c(=O)[nH]1)C(c1ccc(C(=O)OC)cc1)C1=C(CCCC1=O)N2 (stereo not given) | i
CC1(c2ccccc2NC(=O)c2cccc(Cl)c2)CC1 | 10.6%
CCCC(=O)N1CCN(c2ccc(NC(=O)c3sc4ccccc4c3Cl)cc2)CC1 | i
CCOC(=O)c1c(NC(=O)c2ccc([N+](=O)[O-])c(C)c2)sc(C(C)=O)c1C | i
CCCOc1c(Cl)cc(C#N)cc1OC | i
CCOc1ccccc1N1CCN(C(=O)C2CCN(Cc3cccs3)CC2)CC1 | i
Cc1ccc(SCC(=O)Nc2c[nH]c(=O)[nH]c2=O)cc1 | i
O=C(COc1ccccc1Br)Nc1ccc(N2CCCCC2)cc1 | i
Cc1cc(I)ccc1NC(=O)COc1ccc(Cl)cc1 | i
CCC(C)c1ccc(N2CC(C(=O)Nc3cccc([N+](=O)[O-])c3)CC2=O)cc1 (stereo not given) | i
Cc1cc(C)cc(Oc2ccc(NC(=O)c3ccccc3[N+](=O)[O-])cc2)c1 | i
Cc1ccccc1CNC(=O)C(=O)Nc1ccccc1F | i
O=C(Nc1ccccc1)C1CCN(C(=O)c2ccccc2)CC1 | 2.0%
CCCCS(=O)(=O)Nc1ccc2ncn(C)c(=O)c2c1 | 5.7%
COc1ccc(N(C(C)C(=O)Nc2ccccc2)S(C)(=O)=O)cc1 (stereo not given) | i
CCOC(=O)c1c(NC(=O)c2cccc(N3C(=O)CCC3=O)c2)sc2c1CCCC2 | i
Cn1c(COc2ccc(F)cc2)nc2ccccc21 | i
Cc1ccc2oc(=O)n(Cc3ccccc3OCc3ccccc3)c2c1 | 5.4%
COc1cc(NC(=S)Nc2ccc(S(=O)(=O)Nc3ncccn3)cc2)cc(OC)c1OC | i
COc1ccc(CCNC(=S)NC2CC2)cc1 | i
Cn1c(=N)n(CC(=O)c2ccccc2)c2ccccc21 | 33.7%
COc1nc(NCCO)nc(Nc2ccc(Cl)cc2)n1 | 33.0%

Pulled by structure from the entries so far, four records:
SMILES | Mtb growth
CCCCS(=O)(=O)Nc1ccc2ncn(C)c(=O)c2c1 | 5.7%
CCOC(=O)c1c(NC(=O)c2ccc([N+](=O)[O-])c(C)c2)sc(C(C)=O)c1C | i
Cc1cc(C)cc(Oc2ccc(NC(=O)c3ccccc3[N+](=O)[O-])cc2)c1 | i
O=C(Cc1ccccc1)Nc1ccccc1Sc1ccccc1 | i

Continuation.
SMILES | Mtb growth
Cc1c(Cl)cccc1NC(=S)NCCCO | i
Cc1cc(NC(=O)c2ccc(C(C)(C)C)cc2)c(C)cc1I | i
COC(=O)CN(c1ccccc1)S(=O)(=O)c1ccc(C)cc1 | i
CCOC(=O)C(C(=O)OCC)N(C#N)c1nc(C)cc(C)n1 | 4.6%
c1ccc2[nH]c(CSc3ncnc4ccccc34)nc2c1 | 1.4%
O=C(c1ccccc1)c1cc(Cl)ccc1NC(=O)C1CCCCC1 | 4.6%
CCC(=O)Nc1ccc(Cl)c(NC(=S)NC(=O)c2cc(Br)ccc2OC)c1 | 2.7%
CCn1nnnc1NCc1ccc(SC)cc1 | i
CC(C)(C)S(=O)(=O)c1cccc(S(=O)(=O)C(C)(C)C)c1 | i
COC(=O)c1ccc(COC(=O)c2ccncc2)cc1 | 23.2%
Cn1ncc(Br)c1C(=O)Oc1ccccc1Cl | i
CN1CCN(NC(=O)COc2cc(Cl)c(Cl)cc2Cl)CC1 | i
OC(COc1ccc2ccccc2c1)Cn1cncn1 (stereo not given) | i
S=C(NCc1ccco1)NNC(=S)Nc1ccc(Cl)cc1 | i
C=CCOc1c(CNc2ncn[nH]2)cccc1OC | i
O=C(Cc1cccs1)Nc1ccc(S(=O)(=O)NCCc2ccccc2)cc1 | i
CCCC(=O)N1CCN(c2ccc(NC(=O)COc3ccc(C(C)CC)cc3)cc2Cl)CC1 (stereo not given) | 11.3µg/mL*
N#Cc1ccc(CSc2ncccn2)cc1 | 8.9%
COc1ccc(C2(CNC(=O)c3ccccc3[N+](=O)[O-])CCOCC2)cc1 | i
COc1ccc(C(=O)CC2(O)C(=O)Nc3ccccc32)c(OC)c1 (stereo not given) | i
O=C(c1sc2ccccc2c1Cl)N1CCN(c2ccccc2)CC1 | i
CC(NC(=S)Nc1ccc2c(c1)OCO2)c1ccncc1 (stereo not given) | 1.5%
O=C(NC(=S)Nc1ccc2c(c1)C(=O)OC2)c1cccnc1 | 2.0%
Nc1cc(=O)[nH]c(SCC(=O)Nc2cccc(Cl)c2Cl)n1 | i
COC(=O)C(C)Oc1cc2oc(=O)c3c(c2cc1Cl)CCCC3 (stereo not given) | ?
Continued.
SMILES | Mtb growth
O=C(CC1CCCCC1)Nc1ccc(Br)cc1F | 0.5%
COc1ccc(CNC(=O)COc2ccc(Br)cc2Cl)cc1 | 10.7%
O=C(Nc1ccccc1)C1CCN(C(=O)c2ccc([N+](=O)[O-])cc2)CC1 | i
CCOc1ccc(S(=O)(=O)n2cc(-c3ccccc3)c(N)n2)cc1 | 0.1%
Cc1cccc(NC(=O)CSc2ccccn2)c1 | i
Cc1ccc(S(=O)(=O)N(Cc2ccccc2)c2ccccc2C(=O)NCc2ccco2)cc1 | 0.3%
CCCCOc1cccc(C(=O)Nc2nnn(CCC)n2)c1 | i
Cc1cc(=O)oc2cc(OCC(=O)NCC3CCCCC3)c(Cl)cc12 | i
COC(=O)c1cccc(COc2ccccc2C(=O)Nc2ccccc2C)c1 | 0.1%
C=CCn1c(N)cc(=O)nc1SCC(=O)Nc1cccc2ccccc12 | i
Cc1ccc(NC(=O)COc2ccc3c4c(c(=O)oc3c2C)CCC4)cc1 | i
Cc1cc(NC(=O)CS(=O)(=O)c2ccccc2)no1 | i
Cc1ccc(C(=O)Cn2c3ccccc3n3ncnc23)cc1 | i
Cc1cc(Br)ccc1S(=O)(=O)N1CCOCC1 | i
O=C(Nc1cc(Cl)ccc1Cl)C1CCN(C(=O)c2ccc(Cl)cc2Cl)CC1 | i
Cn1cnnc1SCC(=O)Nc1ccc(Cl)cc1 | i
COc1ccc(NC(=O)COc2ccccc2OC)cc1OC | i
CN1CCN(CC(=O)Nc2ccccc2)CC1 | i
COc1cc(NC(=O)Cc2ccc(C)cc2)c(OC)cc1Cl | i
N/C(=N\OC(=O)c1ccccc1)c1ccccc1Cl | i
O=C(NCc1ccc2c(c1)OCO2)c1ccc(Br)o1 | i
CC(C)C(=O)Nc1ccc(NC(=S)NC(=O)COc2ccc(Br)cc2)cc1 | i
Cc1cc(Br)ccc1OCCOCCn1cnc2ccccc2c1=O | i
O=C(NC(=S)N1CCN(c2ccc([N+](=O)[O-])c(NCc3ccco3)c2)CC1)c1cccs1 | 29.4%
O=C(NC1CCC(NC(=O)c2ccncc2)CC1)c1ccncc1 (stereo not given) | i

Reprinted from the entries so far for reference:
SMILES | Mtb growth
O=C(Nc1ccc([N+](=O)[O-])cc1)/C(=C\C=C\c1ccccc1)NC(=O)c1ccccc1Br | i
CC(=O)NCc1ccc2[nH]c3c(c2c1)CCCC3 | i
Nc1nonc1-c1nc2ccccc2n1Cc1ccc(Cl)cc1Cl | i
COc1ncnc2sc3c(c12)CCCC3 | i
O=C(CC1(O)C(=O)N(Cc2ccccc2)c2ccc(Cl)cc21)c1cccnc1 (stereo not given) | i
O=C(NC1CCCCCC1)c1ccccc1I | i
O=C(Nc1ccc(-c2nc3ncccc3o2)cc1)c1cccs1 | i
COc1ccc(/C=C2/SC(=S)N(Cc3ccco3)C2=O)c(OC)c1 | i

Additional entries follow.
SMILES | Mtb growth
COC(=O)Cc1ccc(NC(=S)NC2CC(C)(C)NC(C)(C)C2)cc1 | i
CCc1cccc(CC)c1NC(=O)C(C)NS(=O)(=O)c1ccc(Br)cc1 (stereo not given) | 44.9%
C=CCC1c2cccc(C(=O)O)c2C(=O)N1c1cccc(OC)c1 (stereo not given) | i
O=C(Nc1cccc(Br)c1)C1CCN(S(=O)(=O)c2ccc(Cl)cc2)CC1 | i
Cc1ncc([N+](=O)[O-])n1CC(=O)Nc1cc(Cl)ccc1Cl | i
O=c1cc(C(F)(F)F)nc(Sc2c(-c3ccccc3)c3cc([N+](=O)[O-])ccc3[nH]c2=O)[nH]1 | i
CCOc1ccc(NC(=O)N2CC(C)CC(C)C2)cc1 (stereo not given) | 0.8%
CCc1ccc(NC(=O)CCc2ccc(C)o2)cc1 | 41.5%
C=CCOc1cccc(C(=O)Nc2ccc(Br)cc2F)c1 | i
O=C(O)CNS(=O)(=O)c1ccc(Cl)c(Cl)c1 | i
CCOC(=O)c1c(NC(=O)c2ccccc2)sc(C(=O)NC2CCCCC2)c1C | i
CCCCOc1ccc(C(=O)N2CCN(c3ccc([N+](=O)[O-])c(N4CCOCC4)c3)CC2)cc1 | 0.4%
CC(=O)Nc1nnc(SCC(=O)Nc2ccc(N3CCOCC3)c(Cl)c2)s1 | 0.1%
COCCn1c(SCC(=O)Nc2ccccc2Cl)nnc1-c1ccc(Cl)cc1 | i
Cc1cc(C)cc(NS(=O)(=O)c2ccc(NC(=O)c3ccccc3)cc2)c1 | i
COC(=O)c1c(NC(=O)c2ccccc2OC)sc(C(=O)NCCc2ccccc2)c1C | i
